High-throughput results as filed in PubChem.
PrP UTR inh: inhibition of PrP 5' UTR reporter expression. cell-based PrP 5' UTR mRNA reporter, plate reader. 340,000 tested, 0.35% active. inhibition, % (concentration not given with the values);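 active = every replicate at 50% or more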;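 note: 0 = median of the neutral control wells; tested in H4 reporter cells; numbers are from one replicate; inactives centre near -14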
Sa RN4220 lethal: kills Staphylococcus aureus RN4220. S. aureus RN4220 growth, OD600, 16 h. inhibition, % (no concentration beside the values). 330,000 tested, 0.33% active. AID 1259311;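 active = z-score of -3 or lower and OD600 up to 0.18 on both plates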;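 note: plate controls were untreated cells for no effect and reference antibiotic for full effect; stock transfer was 100 nL into about 80 µL; one replicate is shown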
BJeLR lethal: kills HRASV12-expressing BJeLR cells; BJeLR (HRASV12) viability, CellTiter-Glo ATP luminescence, 48 h; reference of the scale not given here; inhibition, % (concentration not given with the values); 300,000 tested, 0.17% active;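 active = replicate mean above 50%; inconclusive = above 50% but judged a plate artefact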;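 note: 50 nL library stock added to about 25 µL; numbers are from one replicate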
Sa ugtP lethal: growth inhibition of S. aureus ugtP deletion strain. growth inhibition, % (concentration not given with the values). 330,000 tested, 0.54% active. S. aureus RN4220 ugtP deletion, OD600 growth, 16 h; some inactives read as strong as hits. AID 1259309;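 active = z-score under -3 and OD600 up to 0.15 on both plates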;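 note: plate controls were untreated wells for no effect and antibiotic for full effect; wells of about 80 µL received 100 nL stock; the first replicate is given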
Mtb hypoxia inh: inhibitors of hypoxia-regulated fluorescent reporter in Mycobacterium tuberculosis | 300,000 tested, 0.1% active | M. tuberculosis hypoxia-regulated fluorescent reporter, fluorescence | fluorescence inhibition, % (concentration not given with the values);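 active = 35 to 45% if threefold the growth effect, above 45% if 1.5-fold the growth effect; inactive = the rest, general growth blockers included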;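 note: wells of about 50 µL received 100 nL stock; 0% = vehicle wells and 100% = reference inhibitor wells; whole bacteria with a GFP reporter of the hypoxia response; strong numbers were not always called active; many hits fall short of the cut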
Autofluor counter: compound fluorescence in toxin protease inhibitor counterscreen; compound autofluorescence counterscreen, microsphere flow cytometry; hits give high values; AID 624483; fluorescence intensity (test concentration not listed); 360,000 tested, 3.1% active;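 active = at least 3 SD above the mean of all compounds, about 16000 in these data; inconclusive = too few beads counted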;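 note: 100 nL of 1 mM stock went into each well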
Mtb hypoxia inh growth: recorded beside Mtb hypoxia inh, whose call it bears; growth inhibition, %; measured here: M. tuberculosis growth (absorbance);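 0% = vehicle and 100% = reference antibiotic; read after six days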
* marks the source's active call; other numbers are inactive results; ? = inconclusive; / = not tested or not shown. The order is random (roughly 3.9% active in at least one column).

SMILES | PrP UTR inh | Sa RN4220 lethal | BJeLR lethal | Sa ugtP lethal | Mtb hypoxia inh | Mtb hypoxia inh growth | Autofluor counter
COc1ccc([N+](=O)[O-])cc1NC(=O)C(C)N(C)Cc1ccc(Br)cc1 (stereo unspecified) | -25 | 0.4 | -18 | -4 | 4 | 2 | 9072
COc1ccc(CC(=O)NC2CC(C)(C)NC(C)(C)C2)cc1OC | -9 | 2.6 | -2 | 1 | 6 | -1 | 3146
CCOC(=O)c1c(C2CC2)csc1NC(=O)CSCc1c(C)noc1C | 0 | -0.2 | -4 | -1 | / | / | 4485
Cc1cccc(N2CCN(C(=O)CSc3nnnn3C3CC3)CC2)c1C | -10 | 2.3 | / | 1 | 14 | 1 | 4025
CCOc1cccc(/C=N/N=C/c2cccc(OCC)c2O)c1O | -7 | / | 5 | / | / | / | 2959
CCOc1ccc(NS(=O)(=O)c2cc(C(=O)N3CCC3)ccc2Cl)cc1 | -20 | 3.8 | 5 | 15 | 6 | 0 | ?
O=C1[C@H]2[C@@H](c3ccc(F)cc3)N3C(=O)N(c4ccc(Br)cc4)C(=O)[C@@]3(Cc3ccccc3)[C@H]2C(=O)N1C1CCCCC1 | -10 | -7.3 | -15 | -15 | -13 | 5 | 3799
Cc1nc(-c2ccc(S(=O)(=O)N3CCN(CCc4ccccc4)CC3)s2)cs1 | / | 3.6 | -5 | 4 | 14 | 8 | 5728
CCC(C)C(NC(=O)C1CCC(C)CC1)C(=O)Nc1ccc(OC)cc1 (stereo unspecified) | -14 | 4.7 | -6 | 2 | 2 | -1 | 3377
O=C(CCc1nc(-c2cccs2)no1)Nc1cnc2ccccc2c1 | -7 | 1.7 | 4 | 6 | 5 | 2 | 2019
COc1ccc(Nc2nc(N3CCCC3)nc(N3CCOCC3)n2)cc1 | -1 | -17 | -4 | -4 | 6 | 2 | 3978
COc1ccc(N2CCN(C(=O)COC(=O)CCOc3ccccc3C)CC2)cc1 | -20 | 4.0 | 12 | 6 | 5 | 5 | 5275
Cc1cc(-c2ccco2)n(CC(=O)NCc2ccccc2)n1 | -7 | 1.7 | 6 | 10 | 7 | 7 | 5819
O=C(Nc1cccc([N+](=O)[O-])c1)c1ccc2c(c1)OCCO2 | -74 | 5.4 | 7 | 7 | -3 | 3 | 7855
CCC1(C)Cc2c(c(=O)n(-c3ccccc3)c3ncnc(N)c23)CO1 (stereo unspecified) | -6 | 2.1 | -2 | 1 | 0 | 9 | 3128
Nc1cc(=O)[nH]c(SCCOc2ccccc2)n1 | -20 | 3.7 | -6 | 4 | -1 | -4 | 4628
CCN(C=Nc1sc2c(c1C#N)CC(C)(C)NC2(C)C)CC | / | 3.8 | / | 2 | 6 | 3 | /
O=C(Nc1ccccc1)Nc1ccc(O)c2ccccc12 | / | 7.1 | 5 | -15 | -8 | -2 | /
CCOc1cccc(-c2cc(C(=O)N/N=C/c3ccc(OC)c(CN4CCOCC4)c3)c3ccccc3n2)c1 | -7 | / | 8 | / | / | / | 2878
Cc1ccc(-n2ncc3c2CCCC3NC(=O)c2ccccc2N2CCOCC2)cc1C (stereo unspecified) | -3 | 3.9 | -1 | 8 | 10 | -24 | /
CC(C)Cc1[nH]c(=O)c(C#N)c2c1CCC2 | 4 | 1.0 | 0 | 8 | / | / | 3735
Cc1cc(NC(=O)c2cc3n(n2)C(C(F)(F)F)CC(c2ccco2)N3)no1 (stereo unspecified) | -19 | -6.3 | -2 | 1 | 9 | 11 | 6795
CCOc1ccc(NC(=O)c2nn(C)cc2Br)cc1 | -94 | 4.0 | -2 | 11 | 7 | 7 | 7138
COc1ccc(C2C(C#N)=C(N)Oc3cccc(O)c32)cc1 (stereo unspecified) | -27 | 9.8 | -4 | 16 | -6 | 10 | 3228
Cc1ccc(NC(=S)Nc2cccc3cnccc23)cc1C | -20 | -1.9 | 6 | -4 | -6 | 15 | 3995

Remaining list, next part
SMILES | PrP UTR inh | Sa RN4220 lethal | BJeLR lethal | Sa ugtP lethal | Mtb hypoxia inh | Mtb hypoxia inh growth | Autofluor counter
COc1ccc(NS(=O)(=O)c2ccc(OC)c(NC(=O)CNC(=O)c3ccc(OC)cc3)c2)cc1 | -7 | 3.0 | / | 6 | 9 | 3 | 3927
O=C(COC(=O)c1cccc(OC(F)F)c1)NCC1CCCO1 (stereo unspecified) | -3 | 3.6 | / | 4 | 7 | -2 | 3233
Cc1sc2nc(CN3CCOCC3)[nH]c(=O)c2c1-c1ccccc1 | -17 | -4.7 | -7 | -3 | -6 | 2 | 2139
CC(=O)N1CCC(Nc2ccc(C)cc2)CC1 | -17 | -8.6 | -8 | -4 | 8 | 1 | 6111
CCc1nnc(NC(=O)c2ccc(S(=O)(=O)N3CCc4ccccc4C3)cc2)s1 | -16 | 4.6 | -24 | 2 | 0 | 4 | 2546
COc1ccc2c(c1)CCc1c(C(=O)N3CCCCCC3)noc1-2 | -54 | 7.6 | -10 | 17 | 4 | 9 | 8116
O=C(Cn1cc([N+](=O)[O-])ccc1=O)N1CCc2ccccc2C1 | -37 | 0.7 | / | 4 | 5 | -1 | 5352
Cc1ccc(C(=O)N/N=C/c2ccc(N3CCOCC3)cc2)c(C)c1 | -25 | / | 7 | / | / | / | 2219
O=C(CSc1cccc[n+]1[O-])Nc1ccc(Cl)cc1F | -24 | 4.8 | / | 4 | 4 | 0 | 3619
Cc1ccc(-c2c(C(=O)N/N=C/c3ccco3)nnn2-c2nonc2N)cc1 | -15 | / | 9 | / | / | / | 5955
c1ccc2c(c1)CCOC2CNCCCN1CCCCC1 (stereo unspecified) | -13 | -3.8 | 2 | 4 | 5 | 6 | 3239
Cc1n[nH]c(C)c1S(=O)(=O)N1CCN(C(=O)c2ccco2)CC1 | -11 | 1.6 | 6 | 7 | / | / | 3622
CCOC(=O)C1CCN(C2=NC(=O)/C(=C/c3ccc(Cl)cc3)S2)CC1 | 3 | -5.0 | -19 | 2 | 2 | 7 | 3314
NS(=O)(=O)c1ccc(NC(=O)CSc2nnc3n2CCCCC3)cc1 | -11 | 0.3 | / | 5 | 8 | -2 | 6403
O=C(COc1ccccc1)Nc1nc(-c2cccnc2)cs1 | / | -0.5 | / | 2 | 11 | 7 | ?
O=C1C=CC(=Nc2cccc3c2C(=O)c2ccccc2-3)O1 | -5 | 8.3 | / | 17 | 2 | 16 | 3674
C#CCNC(=O)C1=C[C@H](C(C)(C)C)C[C@H](OCCCCO)O1 | -4 | / | 8 | / | / | / | 2906
CCN(CC)CCNC(=O)c1ccc2c(c1)NC(=O)c1ccccc1S2 | -17 | 1.3 | -2 | 10 | -1 | 3 | 3708
CC(NC(=O)OCc1ccccc1)C(=O)NNC(=O)C(Cc1ccccc1)NC(=O)OC(C)(C)C (stereo unspecified) | / | 7.0 | / | 3 | 2 | 3 | /
CC(C)(CNC(=O)c1ccc(NS(=O)(=O)c2ccc(F)c(F)c2)cc1)N1CCOCC1 | 4 | 3.5 | 7 | 1 | -2 | -2 | 5661
O=C(C1CCCN(S(=O)(=O)c2cnc[nH]2)C1)N1CC(=O)N(CCc2ccccc2)C(=O)C1 (stereo unspecified) | 5 | 4.7 | -3 | 5 | / | / | 4261
CCOC(=O)c1cc2c(nc1NC(=S)Nc1ccccc1)CC(C)(C)OC2 | 2 | 3.2 | -12 | 7 | -29 | 9 | 2487
O=S(=O)(c1ccc(Cl)cc1)N(CCCN1CCOCC1)Cc1cccs1 | -21 | 6.8 | -3 | 9 | 14 | 9 | 4418
COc1ccc(/C=N/NC(=O)CCC(=O)Nc2ccc(Br)cc2)c(OC)c1 | -57 | / | -4 | / | / | / | 3703
CCCCNC(=O)CSc1cc(=O)n(C)c2ccccc12 | -3 | -1.9 | 3 | 0 | / | / | 4179

Next section.
SMILES | PrP UTR inh | Sa RN4220 lethal | BJeLR lethal | Sa ugtP lethal | Mtb hypoxia inh | Mtb hypoxia inh growth | Autofluor counter
Cc1ccccc1NC(=O)CCCN1C(=O)C2CC=CCC2C1=O (stereo unspecified) | -6 | 4.7 | 3 | 6 | 13 | 8 | 6310
Cc1ccc(S(=O)(=O)NCc2c(Cl)cccc2Oc2ccccc2)cc1 | -16 | 5.3 | -8 | 4 | 13 | 4 | 3698
COC(=O)c1ccc2nc(NC(=O)C3CC3)sc2c1 | -79 | / | 0 | / | / | / | 5633
CC1=NN(C(=O)c2ccc(Cn3ccc([N+](=O)[O-])n3)cc2)C(O)(C(F)(F)F)C1 (stereo unspecified) | -3 | 4.8 | 8 | 5 | 0 | 2 | 2398
Nc1nc(Nc2ccccc2)nc(NCCO)c1[N+](=O)[O-] | -10 | 3.3 | 2 | -4 | 0 | 2 | 4000
COc1ccc(-c2csc(NC(=O)CCCc3cccs3)n2)cc1 | -10 | 8.3 | -2 | 12 | 0 | -1 | 9980
Cn1nnc2cc(C(=O)NC3CCCCC3)ccc21 | 75* | 1.5 | 0 | 7 | / | / | 3376
CCOc1ccc(Oc2nc(C)cc(OC)n2)nn1 | -18 | 8.4 | 0 | 5 | 12 | 7 | 2191
CCc1cc2cc(C)c(C)cc2nc1SCC(=O)Nc1cc(C)on1 | -1 | 6.3 | 5 | 6 | 11 | -13 | 4433
COC(=O)C(Cc1ccc(O)cc1)NC(=O)C(C)Oc1ccccc1 (stereo unspecified) | 0 | 6.4 | -5 | 16 | 4 | -3 | 5544
CCOc1ccc(C(=O)COC(=O)CC)cc1 | -32 | 2.1 | 4 | 9 | / | / | 2376
COc1ccc(S(=O)(=O)N2CCCCC2)cc1NC(=O)C1CC(=O)N(c2ccc3c(c2)OCCO3)C1 (stereo unspecified) | 2 | 0.5 | 5 | 4 | 8 | 8 | 5368
O=C(CCCN1C(=O)S/C(=C\C=C\c2ccccc2)C1=O)Nc1ccc(C(=O)O)cc1 | -2 | 9.6 | -4 | 3 | 5 | 1 | 5290
Cc1ccc(CN2CCNC(=O)C2CC(=O)N(C)Cc2cnccn2)cc1 (stereo unspecified) | -8 | 2.0 | 5 | 7 | 7 | -5 | 4550
NCCCCCCNS(=O)(=O)c1cccc2c(Cl)cccc12 | -14 | 2.5 | 3 | -1 | 3 | 5 | 6324
COc1ccc(C)cc1S(=O)(=O)N(CC(=O)O)c1ccc(C)cc1 | 3 | 4.1 | 12 | 7 | 7 | 1 | ?
COc1cccc(NC(=O)C2CCN(S(=O)(=O)c3ccc4[nH]c(=O)oc4c3)CC2)c1 | -10 | -3.3 | -3 | -7 | -7 | -3 | 5310
O=C(NCc1ccco1)c1ccc(-c2ccc(Cl)cc2)o1 | -14 | 24 | 0 | 1 | 5 | -6 | 3764
CN(CC(=O)Nc1ccc(Cl)c(C(F)(F)F)c1)C(=O)C1CSC2(C)CCC(=O)N12 (stereo unspecified) | -24 | 1.5 | -6 | -2 | 15 | 2 | 6174
C/C(CC(=O)Nc1ccc(C)c(Cl)c1)=N\NC(=O)C1CCCCC1 | -19 | / | -6 | / | / | / | 3981

Record cards, from the list above. Screens in order: PrP UTR inh | Sa RN4220 lethal | BJeLR lethal | Sa ugtP lethal | Mtb hypoxia inh | Mtb hypoxia inh growth | Autofluor counter
O=C1[C@H]2[C@@H](c3ccc(F)cc3)N3C(=O)N(c4ccc(Br)cc4)C(=O)[C@@]3(Cc3ccccc3)[C@H]2C(=O)N1C1CCCCC1 is listed as -10 | -7.3 | -15 | -15 | -13 | 5 | 3799
O=C(COC(=O)c1cccc(OC(F)F)c1)NCC1CCCO1 (stereo unspecified) is listed as -3 | 3.6 | / | 4 | 7 | -2 | 3233
COc1ccc(NS(=O)(=O)c2ccc(OC)c(NC(=O)CNC(=O)c3ccc(OC)cc3)c2)cc1 is listed as -7 | 3.0 | / | 6 | 9 | 3 | 3927
CCOc1cccc(/C=N/N=C/c2cccc(OCC)c2O)c1O is listed as -7 | / | 5 | / | / | / | 2959

Sorted by length of the SMILES (largest number first): some entries from above.
SMILES | PrP UTR inh | Sa RN4220 lethal | BJeLR lethal | Sa ugtP lethal | Mtb hypoxia inh | Mtb hypoxia inh growth | Autofluor counter
CC1=NN(C(=O)c2ccc(Cn3ccc([N+](=O)[O-])n3)cc2)C(O)(C(F)(F)F)C1 (stereo unspecified) | -3 | 4.8 | 8 | 5 | 0 | 2 | 2398
COc1ccc(C)cc1S(=O)(=O)N(CC(=O)O)c1ccc(C)cc1 | 3 | 4.1 | 12 | 7 | 7 | 1 | ?
COC(=O)c1ccc2nc(NC(=O)C3CC3)sc2c1 | -79 | / | 0 | / | / | / | 5633
